# Bioassay records: PubChem, several laboratories
# PrP 5UTR inh: inhibition of PrP 5' UTR reporter expression; cell-based PrP 5' UTR mRNA reporter, plate reader; inhibition, % (concentration not given with the values); actives 0.35% (n = 340,000); AID 488862;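 active = every replicate at 50% or more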;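 note: 0 = median of the neutral control wells; tested in H4 reporter cells; numbers are from one replicate; inactives centre near -14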
# Mtb hypoxia rep: reduces hypoxia-regulated biosensor signal in M. tuberculosis; fluorescence inhibition, % (test concentration not listed); M. tuberculosis hypoxia-regulated fluorescent reporter, fluorescence; actives 0.1% (n = 300,000);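 active = 35 to 45% if threefold the growth effect, above 45% if 1.5-fold the growth effect; inactive = the rest, general growth blockers included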;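 note: wells of about 50 µL received 100 nL stock; 0% = vehicle wells and 100% = reference inhibitor wells; whole bacteria with a GFP reporter of the hypoxia response; strong numbers were not always called active; many hits fall short of the cut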
# Bead autofluor: flagged as autofluorescent in microsphere protease counterscreen; compound autofluorescence counterscreen, microsphere flow cytometry; hits give high values; fluorescence intensity (concentration not given with the values); actives 3.1% (n = 360,000); AID 624483;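 active = at least 3 SD above the mean of all compounds, about 16000 in these data; inconclusive = too few beads counted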;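 note: 100 nL of 1 mM stock went into each well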
# Sa RN4220 lethal: kills Staphylococcus aureus RN4220; S. aureus RN4220 growth, OD600, 16 h; inhibition, % (no concentration beside the values); actives 0.33% (n = 330,000);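 active = z-score of -3 or lower and OD600 up to 0.18 on both plates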;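 note: plate controls were untreated cells for no effect and reference antibiotic for full effect; stock transfer was 100 nL into about 80 µL; one replicate is shown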
# Sa ugtP lethal: compounds lethal to S. aureus RN4220 ugtP deletion mutant | OD600 growth, 16 h; some inactives read as strong as hits | growth inhibition, % (test concentration not listed) | actives 0.54% (n = 330,000);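 active = z-score under -3 and OD600 up to 0.15 on both plates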;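 note: plate controls were untreated wells for no effect and antibiotic for full effect; wells of about 80 µL received 100 nL stock; the first replicate is given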
# BJeLR lethal: kills HRASV12-expressing BJeLR cells; BJeLR (HRASV12) viability, CellTiter-Glo ATP luminescence, 48 h; reference of the scale not given here; actives 0.17% (n = 300,000); AID 1554; inhibition, % (test concentration not listed);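 active = replicate mean above 50%; inconclusive = above 50% but judged a plate artefact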;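 note: 50 nL library stock added to about 25 µL; numbers are from one replicate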
# Mtb hypoxia rep growth: also measured in Mtb hypoxia rep; calls as there; growth inhibition, %; measured here: M. tuberculosis growth (absorbance);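 0% = vehicle and 100% = reference antibiotic; read after six days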
# Starred values were filed as active, the others as inactive; u = inconclusive; x = not tested or not shown.
cpd	smiles	PrP 5UTR inh	Mtb hypoxia rep	Mtb hypoxia rep growth	Bead autofluor	Sa ugtP lethal	Sa RN4220 lethal	BJeLR lethal
1	CC(=O)Nc1ccc(S(=O)(=O)N(Cc2ccccc2)c2ccccc2)cc1	-17.6	6.5	-1.0	4792	-4.4	8.8	-11.5
2	C[C@@H](CN1C2=NC[C@H](Cc3ccc(O)cc3)N2C[C@H]1Cc1ccc(O)cc1)NC(=O)CCC1CCCCC1	-14.1	x	x	3424	x	x	-5.6
3	COC(=O)C(Cc1cnc[nH]1)NC(=O)C1CCC(=O)N1 (stereo not given)	-14.2	6.2	10.3	22414*	-1.8	6.4	-2.2
4	O=C(COC(=O)c1cccnc1Cl)Nc1cccc(S(=O)(=O)N2CCCCC2)c1	-4.8	-0.2	5.0	4921	-7.1	-1.6	-9.3
5	O=C(CN1C(=O)NC2(CCCC2)C1=O)OCC(=O)c1cccc(Cl)c1	-16.2	6.1	2.0	5894	2.7	4.3	x
6	CC(=O)Nc1ccc(NC(=O)C(C)OC(=O)/C=C/c2cccs2)cc1 (stereo not given)	-11.6	9.4	7.1	3746	1.9	8.2	2.0
7	CCCC(=O)N1CCCC(c2nc(-c3cccc(OC)c3)no2)C1 (stereo not given)	-80.7	-0.3	2.0	4088	-4.5	2.9	31.6
8	O=[N+]([O-])C1=CC=C2C(=NC3(CCCCC3)N2O)C1=NCCO	3.7	10.3	1.5	10874	-4.0	11.5	5.1
9	COc1ccccc1OCC(=O)N(Cc1nc(-c2ccc(Cl)cc2)no1)C(C)C	-16.2	7.8	4.2	5317	13.8	8.3	-5.6
10	ClCCN1CCSCC1	-23.9	14.8	3.4	3039	10.8	4.1	x
11	COc1cc(/C=C/C(=O)NC(C)CCc2ccccc2)cc(OC)c1OC (stereo not given)	-23.6	3.8	6.6	2025	-0.6	-0.9	-7.5
12	COc1cc(OC)c(OC)cc1C=NNC(=O)c1cccc(S(=O)(=O)N2CCOCC2)c1	x	2.5	17.7	x	-0.1	2.5	x
13	O=[N+]([O-])c1cc(-n2cccc2)ccc1N1CCOCC1	-23.4	8.6	1.5	4833	7.4	8.7	-10.9
14	CCCCNS(=O)(=O)c1ccc(S(=O)(=O)n2cnc3ccccc32)cc1	-63.4	4.7	6.0	5566	4.5	4.2	x
15	CC(C)NS(=O)(=O)c1ccc(OCC(=O)Nc2ccc3c(c2)OCCO3)cc1	-30.2	4.2	0.3	4282	1.0	-3.3	-7.0
16	N#Cc1ccc(-c2ccc(F)cc2)nc1Oc1ccc(Cl)c(Cl)c1	-8.2	3.2	2.9	9643	-1.6	-2.3	1.4
17	O=c1cc(-c2cccc(Cl)c2)oc2cccc(O)c12	-9.6	-2.7	5.8	2971	-2.7	0.5	8.1
18	CCOc1ccc(S(=O)(=O)N2CCCC(C(=O)Nc3cccc(C)c3)C2)cc1 (stereo not given)	-14.7	0.0	-9.4	4081	11.9	-2.2	10.0
19	CCc1ccc2[nH]cc(C(=O)OCCOC)c(=O)c2c1	-5.9	x	x	x	-1.5	-2.8	-3.4
20	O=C(/C=C/c1ccc(Cl)cc1Cl)Nc1ccncc1	-91.3	8.7	5.2	2511	-18.1	-5.9	4.0
21	CCOC(=O)N1CCN(C(=S)NC(=O)c2ccc(Br)cc2)CC1	-11.6	10.9	8.5	4360	2.0	-1.6	-2.3
22	C/C(=N\Nc1cccc(Cl)c1)C1(C)N(O)C(C)(C)C(c2ccco2)=[N+]1[O-] (stereo not given)	-26.4	x	x	3646	x	x	-4.0
23	CC(C)Cn1c(N)c(S(=O)(=O)c2cccs2)c2nc3ccccc3nc21	-2.6	-0.9	-1.4	2595	-18.8	-24.7	4.7
24	COc1ccc(S(=O)(=O)N2CCN(c3ccccc3)CC2)cc1C(=O)N1CCCC1	-7.9	16.7	6.8	5479	4.4	-0.5	-1.6
25	CCc1ccc(OCC(=O)NN=C(C)c2ccc(O)cc2O)cc1	x	8.8	8.5	x	-2.2	12.4	x
26	Cc1onc(-c2ccccc2)c1C(=O)N1CCN(C/C=C/c2ccccc2)CC1	-23.4	-4.1	-7.0	5123	7.3	2.3	2.2
27	CCOC(=O)C1(Cc2ccc(OC)cc2)CCN(C(=O)Cc2cccnc2)CC1	-17.8	1.7	7.8	2614	-0.1	0.9	-1.7
28	O=C(NN=Cc1cc(Br)cs1)c1ccncc1	x	8.4	12.6	x	3.5	-2.2	x
29	CCOC(=O)c1oc2ccccc2c1NC(=O)c1cccc(OC)c1OC	0.5	-0.2	7.9	18642*	-8.5	-0.4	-3.0
30	O=S(=O)(c1ccc(OCC(O)CN2CCc3ccccc3C2)cc1)N1CCOCC1 (stereo not given)	-4.8	4.2	-8.2	4315	-0.8	-2.9	-1.3
31	COc1ccc(/C=C(/NC(=O)c2ccc(C)cc2)C(=O)NCc2ccncc2)cc1	-8.1	-7.9	-9.7	6366	0.5	0.8	-3.5
32	Cc1ccc(-c2cnc(N)n2C)cc1C	-16.9	-7.3	7.6	23519*	-18.7	0.2	11.5
33	CCc1cccc(C)c1NC(=O)COC(=O)CNC(=O)c1cccs1	-17.6	2.4	-4.4	u	4.1	1.8	-2.7
34	CCOC(=O)NC(=O)COC(=O)CCCSc1nc2ccccc2s1	-19.6	12.7	-0.3	4322	3.0	0.0	10.7
35	CCN(CC)C(=O)Cn1nnc(-c2ccc(S(C)(=O)=O)cc2)n1	-4.9	7.4	8.1	3560	-4.7	8.7	3.4
36	COc1ccc(N(CC(=O)NC2CCCC2)S(=O)(=O)c2c(C)[nH]c(=O)[nH]c2=O)cc1	-3.5	-0.5	-8.7	4438	-4.7	-3.9	-2.3
37	O=C(CC1C(=O)NCCN1C(=O)Nc1ccccc1)Nc1cc(Cl)cc(Cl)c1 (stereo not given)	-12.4	5.1	11.3	6347	-11.1	-14.3	7.6
38	CCc1sc(C(=O)NCCCn2ccnc2)cc1Br	-11.4	-6.6	-3.0	3870	-0.7	4.6	-7.0
39	COc1cccc(N=NC2C(=O)N(C(N)=S)N=C2C)c1 (stereo not given)	-31.2	0.9	11.9	4325	-3.3	-3.7	-0.3
40	CC(=O)Nc1ccc(N=Nc2ccccc2)cc1	-145.5	5.4	1.5	2103	-4.1	-2.1	-14.0
41	O=c1[nH]c2cccc(F)c2n2cccc12	x	1.3	-9.3	3541	3.7	1.8	-17.5
42	CCOc1ccccc1C=NN1CCCCCC1	-3.6	5.7	19.0	3974	11.9	7.3	x
43	COCCSc1ccccc1C(=O)NCc1ccc2c(c1)OCO2	-5.9	7.5	9.9	2811	-12.0	-4.3	-2.3
44	COc1ccc(-c2noc(CCCC(=O)NCCc3ccccc3)n2)cc1OC	-19.4	2.4	12.4	4346	5.0	-0.3	6.7
45	CCOP(=O)(/C(C#N)=C(\C)O)c1ccccc1 (stereo not given)	-12.2	x	x	2551	x	x	-5.7

# Single values from the list.
# entry 3 | Mtb hypoxia rep = 6.2
# entry 5 | Sa RN4220 lethal = 4.3

# The results go on.
cpd	smiles	PrP 5UTR inh	Mtb hypoxia rep	Mtb hypoxia rep growth	Bead autofluor	Sa ugtP lethal	Sa RN4220 lethal	BJeLR lethal
46	C=C(C)Cn1c(CCNC(=O)CC)nc2ccccc21	-9.3	-58.6	39.6	6004	-0.1	4.9	-4.3
47	CCOC(=O)N1CCN(C(=O)C(NC(=O)c2ccc(C(C)(C)C)cc2)C(C)C)CC1 (stereo not given)	2.7	-9.3	10.0	3741	0.1	0.9	x
48	COC(=O)C1=C(Nc2ccccc2NC(=O)c2ccccc2C(=O)O)CSC1	-25.4	8.4	1.5	4098	3.3	0.7	0.8
49	Cc1ccc(NC(=O)Nc2cccn(Cc3c(F)cccc3Cl)c2=O)cc1	-14.3	-4.3	3.7	4645	3.0	1.9	7.8
50	COc1cc(-c2nc3cnccn3c2Nc2ccccc2)ccc1O	-10.9	6.1	2.8	5777	5.8	2.8	8.9
51	COc1ccc2oc(-c3ccncc3)cc(=O)c2c1	-87.1	18.0	11.7	3553	0.8	2.9	x
52	COc1cccc(CNC(=O)CC(NC(=O)c2ccccc2)c2ccccc2)c1 (stereo not given)	-5.6	6.0	3.9	u	2.4	-0.2	13.2
53	CC1=C(C)/C(=N\OC(=O)/C=C/c2ccccc2)C=CC1=O	-29.9	x	x	2714	x	x	1.9
54	COc1cccc(CNC(=O)COC(=O)CN(C)S(=O)(=O)c2ccc(NC(C)=O)cc2)c1	-18.1	4.4	-11.0	6052	11.4	3.3	-4.9
55	COCCN(C(=S)Nc1ccc(OC)cc1)C(C)c1cccs1 (stereo not given)	-18.2	13.4	5.6	2451	23.6	9.7	-1.8
56	Cc1sc(NC(=O)CSc2nnc(COc3ccccc3)n2C)c(C#N)c1C	-22.0	0.7	-0.3	4282	-2.2	4.6	-8.2
57	O=C(Nc1ccc(N2C(=O)CCC2=O)cc1Cl)c1cccs1	-14.5	-11.6	-3.7	3283	-0.6	3.0	0.6
58	O=C(NCC1CCCO1)C(c1cccnc1)N(C(=O)Cc1cccs1)c1cccnc1 (stereo not given)	11.1	-2.9	7.0	10020	5.1	0.2	-4.2
59	COC(=O)c1ccc(NC(=O)c2ccccc2N(C)S(=O)(=O)c2ccccc2)cc1	-11.7	x	x	4273	8.9	6.1	6.7
60	COc1ccccc1NC(=O)COC(=O)c1c(C)nn(-c2ccccc2)c1C	-34.3	21.8	40.5	3358	4.1	3.5	x
61	O=C(c1ccc(COc2ccc(Br)cc2)o1)N1N=C(C(F)F)CC1(O)C(F)F (stereo not given)	-20.2	11.3	4.9	2519	-3.5	5.6	-0.3
62	CCOC(=O)C1(c2ccccc2)CCN(CCC(C#N)(c2ccccc2)c2ccccc2)CC1	18.8	-2.2	-0.6	4461	-3.9	-1.5	2.5
63	Cc1ccc(CC(=O)N2CCN(c3cccc(C(F)(F)F)c3)CC2)cc1	-1.0	10.9	6.9	u	-9.1	0.8	5.4
64	COc1ccc2oc(C(F)(F)C(F)F)cc(=O)c2c1	-0.8	x	x	2676	4.4	-1.1	-3.6
65	COc1cc(C=NNC(=O)c2cnccn2)cc(OC)c1OC	x	1.6	0.1	x	0.0	3.5	x
66	Cc1ccc(NC(=O)C2(NC(=O)c3ccccn3)CCCCC2)cc1Br	-7.8	2.0	2.7	2364	6.4	4.5	8.5
67	Cc1cc(NC(=O)COC(=O)C2CCN(S(=O)(=O)c3cccc(Cl)c3Cl)CC2)no1	-11.0	3.5	6.5	2855	5.8	9.7	-2.5
68	COc1ccc(N=C2NC(=O)/C(=C/c3ccco3)S2)cc1	-12.9	11.3	-0.3	4328	-7.5	-0.4	0.6
69	CCOc1ccc(NCC(=O)Nc2ccc(C)cc2C)cc1	-27.4	11.2	15.3	5254	4.1	6.2	-6.0
70	CCOC(=O)c1cnc2ccccc2c1NCCc1ccc(OC)c(OC)c1	-25.5	11.3	17.0	6049	-1.1	8.0	8.9
71	CC1CC1C(=O)N(CCC1=CCCCC1)c1c(N)n(Cc2ccccc2)c(=O)[nH]c1=O (stereo not given)	-12.7	4.1	2.0	7133	3.2	0.9	-18.1
72	NC(=O)c1ccc(N2CCCCC2)c(N2C(=O)CCC2=O)c1	-16.3	2.5	8.5	3295	-7.0	-12.3	2.0
73	CCOc1cccc(CN(C)CC2CCCN(CCc3ccc(Cl)cc3)C2)c1O (stereo not given)	-6.3	10.8	8.5	x	5.3	2.3	-9.9
74	C=C(C)[C@H]1CC=C(C)C(=NNC(=O)CNc2ccccc2OC)C1	x	1.2	2.8	x	-0.8	0.4	x

# Five neighbouring records out of the list so far, for reference:
cpd	smiles	PrP 5UTR inh	Mtb hypoxia rep	Mtb hypoxia rep growth	Bead autofluor	Sa ugtP lethal	Sa RN4220 lethal	BJeLR lethal
66	Cc1ccc(NC(=O)C2(NC(=O)c3ccccn3)CCCCC2)cc1Br	-7.8	2.0	2.7	2364	6.4	4.5	8.5
67	Cc1cc(NC(=O)COC(=O)C2CCN(S(=O)(=O)c3cccc(Cl)c3Cl)CC2)no1	-11.0	3.5	6.5	2855	5.8	9.7	-2.5
68	COc1ccc(N=C2NC(=O)/C(=C/c3ccco3)S2)cc1	-12.9	11.3	-0.3	4328	-7.5	-0.4	0.6
69	CCOc1ccc(NCC(=O)Nc2ccc(C)cc2C)cc1	-27.4	11.2	15.3	5254	4.1	6.2	-6.0
70	CCOC(=O)c1cnc2ccccc2c1NCCc1ccc(OC)c(OC)c1	-25.5	11.3	17.0	6049	-1.1	8.0	8.9

# This is a random part of the collection. About 3.9% of those tested had a hit in this group.
